StopGo reporter = lowers the luciferase signal of an FMDV 2A StopGo reporter. human cells with a luciferase reporter of 2A StopGo recoding; control for the full effect not named in the record. Potency, µM (highest dose often 57.9 µM), for the others: at the top dose signal change, negative = less light. 410,000 compounds, 1.2% hits. AID 1159524; active = well fitted falling curve with a large enough effect; inconclusive = small, poorly fitted or top-dose-only effect; inactive = no such curve, though single readings can be large or run the other way; tested in HEK293T cells; also: % is scaled to controls: 0 for no effect and ±100 for the full control effect; nearly all actives have a fitted effect of over 45% in size; luciferase light after 4 h
NS1 function inh = influenza NS1 inhibition. S. cerevisiae slowed by influenza A NS1, growth recovery by OD600. Potency, µM (series often up to 46.1 µM), for inactives: top-dose activity, positive = more growth. 270,000 compounds, 0.4% hits. AID 2326; active means well fitted rising curve with a large enough effect; inconclusive means small, poorly fitted or top-dose-only effect; inactive means no such curve, though single readings can be large or run the other way; also: nearly all actives have a fitted effect of over 50% in size
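Recovery from NS1-induced slow growth read by OD600 in budding yeast switched to galactose assay medium (pH 6.0, -URA) at 1:100 dilution. Compound 23 nl per well; the matching strain lacking NS1 serves as control.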
RE007 growth inh = less growth of the S. pombe RE007 Vpr strain; 360,000 compounds, 0.21% hits; Potency, µM (top dose mostly 92.2 µM), for inactives: top-dose activity change, negative = less growth; S. pombe RE007 Vpr strain, BacTiter-Glo ATP luminescence, 24 h; control for the full effect not named in the record; active = well fitted falling curve with a large enough effect; inconclusive = small, poorly fitted or top-dose-only effect; inactive = no such curve, though single readings can be large or run the other way;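 also: % is scaled to controls: 0 for no effect and ±100 for the full control effect; nearly all actives have a fitted effect of over 50% in size; the assay follows cell death caused by Vpr and the record does not say whether a fall means rescue or toxicity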
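Fission yeast strain RE007, carrying one chromosomally integrated HIV-1 vpr copy, was seeded at OD 0.01 in PMG+AL medium with 23 nL pinned compound. After 24 h at 30 °C and 99% humidity, viability was read by BacTiter-Glo luminescence.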
SARS PLP yeast = inhibitors of SARS-CoV papain-like protease in yeast. S. cerevisiae expressing SARS-CoV PLpro, growth rescue; control for the full effect not named in the record. Potency, µM (series often up to 32.9 µM), inactives show at the highest dose activity, positive = growth rescue. 330,000 compounds, 0.19% hits. AID 485353; active means well fitted rising curve with a large enough effect; inconclusive means small, poorly fitted or top-dose-only effect; inactive means no such curve, though single readings can be large or run the other way; also: 0% is about no effect; nearly all actives have a fitted effect of over 55% in size; growth read by luminescence after 48 h
Cruzain inh noDet = inhibitors of Trypanosoma cruzi cruzain without detergent. P25779. purified cruzain, Z-FR-AMC fluorescence, no detergent. Potency, µM, without a hit: max response, negative = inhibition, actives largely listed as inhibitors. 200,000 compounds, 2.3% hits;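 also: plate controls were enzyme without inhibitor for no effect and buffer without enzyme for full effect; nearly all actives have a fitted effect of over 40% in size; top concentration of the series not given in the record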
Target sequence (P25779 123-467 limits assumed): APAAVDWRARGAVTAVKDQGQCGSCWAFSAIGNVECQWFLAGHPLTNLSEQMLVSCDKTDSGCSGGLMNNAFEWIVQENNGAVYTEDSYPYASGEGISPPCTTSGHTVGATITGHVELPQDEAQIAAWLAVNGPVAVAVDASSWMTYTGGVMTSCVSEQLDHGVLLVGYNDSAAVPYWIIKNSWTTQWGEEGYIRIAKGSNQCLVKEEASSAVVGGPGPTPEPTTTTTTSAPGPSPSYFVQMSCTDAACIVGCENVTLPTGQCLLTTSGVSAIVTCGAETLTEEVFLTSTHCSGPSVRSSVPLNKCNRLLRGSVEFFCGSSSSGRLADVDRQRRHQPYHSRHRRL
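Detergent-free condition (0.00005% Triton X-100) in acetate buffer pH 5.5 with DTT. 1.5 nM enzyme and compound were pre-mixed 15 min, then 2 uM Z-FR-AMC substrate added; reaction progress from fluorescence change between first and third reads (60 s).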
Marburg entry inh = inhibitors of Marburg virus binding or cell entry | Marburg virus pseudotyped entry inhibition, cell reporter; control for the full effect not named in the record; about a third of the inactives were read at about 46 µM | AID 540276 | Potency, µM (doses to about 37.8 µM), inactives show top-dose activity change, negative = inhibition, most hits filed as inhibitors | 300,000 compounds, 1.8% hits; active = well fitted inhibition curve with a large enough effect; inconclusive = small, poorly fitted or top-dose-only effect, or effect the other way; inactive = flat fitted curve, though single readings scatter; tested in HEK293 cells; about a fifth of its hits are not listed in these tables; also: % is scaled to controls: 0 for no effect and ±100 for the full control effect; luciferase read-out
Cruzain Triton = blocks cruzain activity in presence of Triton detergent; P25779; purified cruzain, Z-FR-AMC fluorescence, 0.01% Triton; Potency, µM, for the others: max response, negative = inhibition, most hits filed as inhibitors; 200,000 compounds, 0.43% hits; AID 1478;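 also: plate controls were neutral wells for no effect and buffer without enzyme for full effect; nearly all actives have a fitted effect of over 40% in size; top concentration of the series not given in the record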
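Cysteine protease activity tested under reducing, mildly acidic conditions (100 mM sodium acetate pH 5.5, 5 mM DTT) plus 0.01% Triton X-100. Cruzain 1.5 nM; substrate Z-FR-AMC 2 uM; 15 min compound preincubation at room temperature.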
Lassa entry inh = inhibitors of Lassa virus binding or cell entry; Lassa virus pseudotype entry inhibition, cell reporter; control for the full effect not named in the record; Potency, µM (titrated, usually from 37.9 µM), for inactives: at the highest dose activity change, negative = inhibition, actives largely listed as inhibitors; 300,000 compounds, 1.2% hits; AID 540256; active means well fitted inhibition curve with a large enough effect; inconclusive means small, poorly fitted or top-dose-only effect, or effect the other way; inactive means flat fitted curve, though single readings scatter; tested in HEK293 cells; also: % is scaled to controls: 0 for no effect and ±100 for the full control effect; nearly all actives have a fitted effect of over 50% in size; luciferase read-out
The depositor's hits bear a star; ? = inconclusive; . = not tested or not shown; & = joins results of further samples; ! = a repeat was not active; [ ] = remark or other dose. Unless noted, calls follow the shape of the dose curve; as a rule, active = well fitted curve in the direction sought with a large enough effect; inconclusive = small, poorly fitted or top-dose-only effect, or another doubt; inactive = no such curve, though single readings can be large; an effect the other way counts as inactive or inconclusive. Potency is read from the fitted curve at half-maximal effect. Rows were taken by chance, and some 4.7% of all compounds hit somewhere here.

SMILES | StopGo reporter | NS1 function inh | RE007 growth inh | SARS PLP yeast | Cruzain inh noDet | Marburg entry inh | Cruzain Triton | Lassa entry inh
CCCc1cc(C(F)(F)F)c(C#N)c(=O)[nH]1 | -11.6% | 9.9% | 20.3% | -1.4% | -5.3% | 2.7% | -13.3% | 8.9%
COc1ccc(C(=O)Nc2ccc(NC(=O)c3cc(OC)c(OC)c(OC)c3)cn2)cc1 | -4.6% | 7.3% | 10.5% | -7.4% | . | -24.3%[46.1 µM] | . | 13.7%[46.1 µM]
CCCSc1ccccc1C(=O)N1CCN(C(=O)c2ccco2)CC1 | -9.4% | 9.2% | 8.5% | 2.2% | . | -24.4%[46.1 µM] | . | ?
CCCc1ccc(S(=O)(=O)NCCc2ccncc2)cc1 | 38.9%[activator] | 6.5% | -2.7% | -0.6% | 9.7% | -17.1%[46.1 µM] | 6.8% | ?
S=c1[nH]nc(-c2cccs2)n1/N=C/c1cn(-c2ccccc2)nc1-c1ccc(Cl)cc1 | ? | -1.3% | -11.3% | 1.0% | . | 25.8%[14.2 µM] | . | -15.6%
CN(C)S(=O)(=O)c1ccc(C(=O)NC(=O)CSc2ccccc2)cc1 | 80.5%[activator] | 2.3% | 2.8% | 4.5% | 2.4% | ? | -2.7% | 3.3%
Cc1ccccc1OCc1ccc(-c2nc(C#N)c(N3CCN(c4ccccc4)CC3)o2)o1 | -17.2% | . | . | . | 2.0% | ? | 6.4% | 1.8%[46.1 µM]
CC(C)(C)c1ccc(CS(=O)CC(O)CO)cc1 (configuration not stated) | -4.7% | 10.5% | 2.6% | 0.6% | -7.3% | ? | -1.1% | 12.9%
COc1ccc(N(C)C(=S)Nc2ccc3nc(C)c(C)nc3c2)cc1 | -23.2% | -30.5% | -1.5% | . | -5.2% | ? | -2.9% | ?
O=C(Cc1ccccc1F)OCC(=O)N1CCN(C(=O)c2ccco2)CC1 | -8.2% | . | 1.1% | 0.6% | . | 19.0%[46.1 µM] | . | 18.0%
COc1cc(C(=O)OCC(=O)Nc2ccc(SC(F)F)cc2)cc(OC)c1OC | 35.5µM* | 0.0% | . | 8.1% | 23.2% | ? | -3.6% | 0.0%
Nc1ccc2nc(CCCCCCc3nc4ccc(N)cc4[nH]3)[nH]c2c1 | -20.7% | 7.9% | -7.0% | 0.2% | . | ? | . | 6.7%[46.1 µM]
CCc1cc(C(c2ccc(OC)c(OC)c2)N2CCOCC2)c(NC(=O)c2ccccc2)s1 (configuration not stated) | -5.6% | 16.3% | -0.5% | 21.8% | ? | ? | -9.7% | ?
CSc1cccc(NC(=O)Cn2cnc(S(=O)(=O)N3CCCC3)c2)c1 | -9.0%&-24.3% | 10.9% | 7.8% | . | -14.6% | . | -2.2% | -13.1%[46.1 µM]
Clc1ccc(Cn2ccnc2)cn1 | -7.1% | -0.6% | 1.4% | -1.7% | . | 1.1%[46.1 µM] | . | ?
COc1ccc(/C=N/n2cnc3c([nH]c4ccc(Br)cc43)c2=O)cc1CN1CCOCC1 | 0.0% | -0.2% | -9.9% | -0.2% | -5.9% | -27.4% | 1.3% | -14.3%
O=C(c1cccs1)N1CCN(c2nc3ccc([N+](=O)[O-])cc3s2)CC1 | -13.3% | . | 5.3% | -1.8% | . | 20.2% | . | -4.3%
O=C(Nc1ccc(Cl)c(Cl)c1)Nc1ccccc1C(=O)O | -70.3% | 0.9% | -14.2% | -0.5% | . | ? | . | 3.55µM*
CCc1ccc(CN(C)CC(=O)Nc2sccc2C#N)cc1 | 0.0% | 1.6% | 27.7% | 3.7% | -10.8% | 9.9% | -1.4% | -11.9%
COc1ccc(C(=O)Nc2ncc3c(n2)CC(c2ccco2)CC3=O)cc1 (configuration not stated) | -15.0% | -16.7% | 8.8% | 2.4% | -1.5% | 7.7% | -1.9% | 2.9%
Cc1cc(N2CCCC2)ccc1NC(=O)CN1C(=O)NC(C)(c2ccccc2)C1=O (configuration not stated) | -10.3% | 1.8% | 0.7% | -5.3% | . | 12.5%[46.1 µM] | . | 2.9%
O=C(O)c1ccc(Cn2cnc3c(=S)nc[nH]c32)cc1 | -4.8% | . | -6.1% | . | . | 1.1%[46.1 µM] | . | 6.1%[46.1 µM]
c1ccc2c3c(c(CN4CCCC4)cc2c1)COC3 | -12.4% | -1.6% | 4.1% | -0.9% | . | 27.3%&27.3%[46.1 µM] | . | 16.5%[46.1 µM]
CCOC(=O)c1sc2ncn(CC(=O)Nc3ccc(C)cc3Br)c(=O)c2c1C | 0.4% | . | . | . | -0.3% | ? | -1.2% | 0.0%[46.1 µM]
COc1ccc(-c2ccc(S(=O)(=O)NCC3CCCO3)cc2)cc1 (configuration not stated) | 19.8% | -3.5% | -1.7% | 4.0% | -25.9% | -17.2% | -1.1% | ?

Single records, as listed above:
CCCc1cc(C(F)(F)F)c(C#N)c(=O)[nH]1 as listed: StopGo reporter: -11.6%; NS1 function inh: 9.9%; RE007 growth inh: 20.3%; SARS PLP yeast: -1.4%; Cruzain inh noDet: -5.3%; Marburg entry inh: 2.7%; Cruzain Triton: -13.3%; Lassa entry inh: 8.9%
c1ccc2c3c(c(CN4CCCC4)cc2c1)COC3 as listed: StopGo reporter: -12.4%; NS1 function inh: -1.6%; RE007 growth inh: 4.1%; SARS PLP yeast: -0.9%; Cruzain inh noDet: .; Marburg entry inh: 27.3%&27.3%[46.1 µM]; Cruzain Triton: .; Lassa entry inh: 16.5%[46.1 µM]

New compounds follow
SMILES | StopGo reporter | NS1 function inh | RE007 growth inh | SARS PLP yeast | Cruzain inh noDet | Marburg entry inh | Cruzain Triton | Lassa entry inh
CCOC(=O)N1CCN(CC(O)COc2ccccc2C(C)CC)CC1 (configuration not stated) | -22.6% | -4.8% | 13.1% | -5.4% | 5.9% | 0.0% | 1.9% | -12.1%
Cc1ccc(-n2ncc3c(=O)n(CC(N)=O)cnc32)cc1C | 0.0% | 15.8% | 7.5% | 4.1% | . | . | . | .
Nc1nnc(SCC(=O)Nc2ccc(N3CCOCC3)cc2)s1 | 9.7% | . | -4.2% | . | . | 14.1% | . | 24.2%
Cc1ccc(NC(=O)CSCn2nnc3c(=O)[nH]c(Cc4ccc(F)cc4)nc32)c(C)c1 | -29.2% | . | . | . | -25.6% | 9.9%[46.1 µM] | 0.8% | 12.9%[46.1 µM]
COc1cccc(-n2c(-c3ccoc3)nc3ccccc3c2=O)c1 | 4.2% | -46.4% | 7.9% | -4.6% | -0.6% | 16.7% | 1.7% | 14.9%
NC(=O)c1ccccc1NC(=O)/C=C/c1ccccc1 | -1.2% | -12.1% | -29.1% | -15.2% | 8.6% | ? | -2.4% | -1.3%
CC(C)(C)NC(=O)Nc1ccc(Cn2cc(C(F)(F)F)ccc2=O)cc1 | -2.0% | . | -11.7% | -1.6% | . | ? | . | -7.5%
COC(=O)c1ccc(CSc2nnc(Nc3ccccc3OC)s2)o1 | . | -62.6% | -3.1% | -2.7% | -1.0% | ? | -1.5% | -25.9%
CC(C)c1ccc2oc(-c3ccc(NC(=O)c4ncn[nH]4)cc3)nc2c1 | . | 5.2% | 6.8% | -11.0% | 12.6µM* | -1.4% | -7.6% | -5.8%
COC(=O)COC(=O)c1ccc(O)cc1 | 12.7% | 0.7% | -0.5% | 2.6% | -7.5% | 24.6% | -0.6% | 10.1%
Cc1ccc(NC(=O)C2CC(=O)OC23CCOC(C)(C)C3)cc1 (configuration not stated) | 1.3% | -5.0% | 22.0% | 9.8% | -4.5% | 1.2% | 0.3% | 15.4%
Nc1nc(N2CCN(Cc3ccccc3)CC2)n[nH]1 | -15.9% | -2.0% | 27.6% | 0.6% | . | 5.8%[46.1 µM] | . | -8.4%[46.1 µM]
CC(=O)/C(=N/Nc1ccc(Br)cc1)Sc1cccc2cccnc12 | -24.6% | 3.9% | 3.4% | 0.6% | ? | ? | -8.5% | -8.3%
CCN1CCN(c2ccc(S(=O)(=O)N3CCCCC3)cc2NC(=O)/C=C/c2ccc(OC)c(OC)c2)CC1 | -15.4% | . | -9.7% | 8.0% | . | ? | . | 16.8%
CCCCn1c(NCc2ccccn2)nc2ccccc21 | -0.6% | -13.0% | 0.7% | 4.5% | 2.9% | 0.4% | 0.2% | ?
Cc1ccc(CNC(=O)C2CCN(S(=O)(=O)c3c(C)noc3/C=C/c3c(C)cc(C)cc3C)CC2)cc1 | -19.3% | . | . | . | -3.7% | . | -0.7% | 20.2%[46.1 µM]
COc1ccc(Cl)cc1NC(=O)c1cccc(NC(=O)CCC(=O)O)c1 | -22.3% | 15.6% | 8.5% | 23.3% | 0.3% | ? | 0.8% | 4.1%
O=C(CN1CCC(n2cnc3cc(F)ccc32)CC1)Nc1ccccc1Br | -18.0% | -5.5% | 24.8% | -10.2% | . | . | . | .
N#CC1=C2SCC(O)(c3ccccc3)N2C(=O)CC1c1cccs1 (configuration not stated) | ? | -3.6% | 0.8% | 1.7% | -3.5% | 0.0326µM*! | -8.8% | ?
Cc1cc(C(=O)OCC(=O)N2CCOCC2)c2ccccc2n1 | -18.5% | -8.5% | 3.7% | -3.2% | 1.5% | 10.6%[46.1 µM] | 3.4% | -4.2%
COCCSc1nnc(NC(=O)COc2ccc3c(c2)OCO3)s1 | 14.4% | -33.9% | -20.7% | 7.4% | . | 13.3%[46.1 µM] | . | .
COc1cc2c(cc1OC)C(c1ccc(Cl)cc1)N(c1cccc(C#N)c1)C(=O)C2 (configuration not stated) | -22.5% | . | . | . | ? | -44.5%[46.1 µM] | -7.4% | ?
CC(=O)c1cnc2cc(-c3ccc(C)cc3)nn2c1C | . | -7.2% | -4.4% | -2.3% | -4.5% | 16.5% | -5.2% | ?
COC(=O)Cn1c(=NC(=O)CSC(C)=O)sc2ccccc21 | -12.3% | 5.0% | 6.4% | 4.8% | 0.4% | 7.4% | -3.7% | -0.6%
CCn1c(=O)n(CC(=O)N2CC(C)CC(C)C2)c(=O)c2ccccc21 (configuration not stated) | -9.5% | 2.2% | 0.8% | -0.1% | 1.0% | 7.7% | 0.9% | -12.1%

Assay outcomes from PubChem.
